# Screening results as filed in PubChem.
# VDR inh = inhibitors of human vitamin D receptor. P11473. VDR-SRC2-3 peptide fluorescence polarization, 2 h. AID 504847. Potency, µM, for the others: max response, negative = inhibition, actives largely listed as inhibitors. hit rate 0.93% among 400,000; active = well fitted inhibition curve with a large enough effect; inconclusive = small, poorly fitted or top-dose-only effect, or another doubt; inactive = no such curve, though single readings can be large or run the other way; note: series mostly up to about 120 µM
# Target sequence (P11473 whole entry, looked up): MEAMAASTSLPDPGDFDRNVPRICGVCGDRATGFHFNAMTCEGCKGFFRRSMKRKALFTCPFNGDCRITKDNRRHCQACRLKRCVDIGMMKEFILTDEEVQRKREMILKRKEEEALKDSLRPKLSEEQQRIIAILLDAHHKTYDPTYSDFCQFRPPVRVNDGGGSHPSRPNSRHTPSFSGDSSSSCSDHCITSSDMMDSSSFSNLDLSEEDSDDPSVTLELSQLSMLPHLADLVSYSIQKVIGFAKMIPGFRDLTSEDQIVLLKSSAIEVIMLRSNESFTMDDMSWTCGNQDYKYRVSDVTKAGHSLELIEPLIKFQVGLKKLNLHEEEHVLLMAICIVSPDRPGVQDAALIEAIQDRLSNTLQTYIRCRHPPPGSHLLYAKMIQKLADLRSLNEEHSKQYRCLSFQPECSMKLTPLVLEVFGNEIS
#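 Inhibition of the VDR/SRC2-3 peptide interaction is quantified by fluorescence polarization. Compounds (23 nl, pintool) incubate with the reagents for 2 hours at ambient room temperature.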
# * = called active by the depositor; ? = inconclusive; & = joins results of further samples; [ ] = dose if it differs, or a comment. % is set by controls: 0 for no effect and ±100 for the full control effect; potency is the fitted concentration of half-maximal effect.
VDR inh	molecule
-4%	O=C(C1=C[C@@H](c2ccccc2)C[C@@H](OCc2ccc(CO)cc2)O1)N1CCN(Cc2ccc3c(c2)OCO3)CC1
-3%	Cc1cc(Cl)ccc1OCC(=O)N/N=C/c1ccncc1
43%[activator]	CO/N=C(\N)c1nonc1N
1%	O=C(CCCCCN1CCN(c2ccccc2-c2ccccc2)CC1)NC1CCCc2ccccc21 (configuration not stated)
7%	COc1cccc(C=Nc2ccccc2C(=O)Nc2ccccc2)c1O
7%	O=C(Nc1cc(S(=O)(=O)N2CCOCC2)ccc1N1CCOCC1)c1ccccc1[N+](=O)[O-]
18%	COc1ccc(Cl)cc1NC(=O)C(=O)N/N=C/c1cc(C)n(-c2ccc(C)cc2)c1C
9%	CCCS(=O)(=O)N1CCN(C(=O)c2cc(OC)cc(OC)c2)CC1
13%	COc1ccc(Cc2nnc(SCC(=O)NC3CCCCC3)n2C)cc1
8%	O=C(O)c1cccn1Cc1ccccc1F
-5%	COc1ccccc1OCCNC(=O)CN(c1cccc(C)c1)S(=O)(=O)c1ccccc1
6%&2%&-3%	CCc1cccc(N(C)C(N)=Nc2cccc3ccccc23)c1
-2%	Cc1ccc(CCNC(=O)c2cccc(NC3=NC4CS(=O)(=O)CC4S3)c2)cc1 (configuration not stated)
-7%	CCOC(=O)[C@@H]1[C@H]2COc3cc(OC)ccc3[C@@H]2N2C(=O)N(c3ccc(C(F)(F)F)cc3)C(=O)[C@@]12C
0%	CC(=O)c1cc(-c2ccc(F)cc2)n(CC(=O)NC2CCC(C)CC2)c1C (configuration not stated)
-4%	Cc1ccc(NC(=O)CSc2nnc3ccc4ccccc4n23)cc1
-22%	C#CCOc1c(Cl)cc(/C=N/NC(N)=S)cc1OCC
-18%	COc1ccc(OC)c(C(=O)N/N=C/c2ccccn2)c1
-4%	CN(C)C(=O)c1ccc(NC(=O)CN2C(=O)NC3(CCCc4ccccc43)C2=O)cc1 (configuration not stated)
7%	COc1ccc(CCN2CC(C(=O)NCCc3ccccn3)CCC2=O)cc1 (configuration not stated)
-3%	COCc1cc(C)n(CC(=O)Nc2c(C)cccc2C)c(=O)c1C#N
-12%	C[C@H](CCC(=O)NCC(=O)O)[C@H]1CC[C@H]2C3[C@H](O)C[C@@H]4C[C@H](O)CC[C@]4(C)[C@H]3C[C@H](O)[C@]12C (some centres not stated)
6%	Cc1ccccc1CNC(=O)c1ccc2c(c1)c(C)c(C)n2C
4%	CC(Oc1ccccc1)C(=O)N1CCN=C1SCc1ccccc1F (configuration not stated)
7%	CC(C)(C)c1nnc(NC(=O)c2cccnc2Cl)s1
1%	CCOc1ccc(N2C(=O)CC(NCCc3ccc(S(N)(=O)=O)cc3)C2=O)cc1 (configuration not stated)
-3%	Cc1ccc(S(=O)(=O)N2CCN(C(=O)COC(=O)Cc3ccc(F)cc3)CC2)c(C)c1
13%	COC(=O)c1ccc(NC(=O)CSc2nnc(C3CC3)n2C)cc1
14%	O=C(NC1CCCCC1)c1ccc(Cn2c(SCc3ccccc3)nc3cccnc32)cc1
-14%	COc1ccc(/C(C)=N/NC(=O)CNC(=O)c2cccnc2)cc1
11%	CC(CCc1ccccc1)NC(=O)C1CCCN(C(=O)c2cc3sccc3n2C)C1 (configuration not stated)
-5%	CCNC(=O)/C(=C/c1ccco1)NC(=O)/C=C/c1ccccc1
?	S=c1[nH]nc2ccccn12
1%	CC(O)CNCCCCOc1ccc(OCc2ccccc2)cc1 (configuration not stated)
-11%	CC(C)(C)c1ccc(C(=O)OCCNC(=O)c2c(Cl)nc3ccccn23)cc1
15%	COc1cc(C)nc(N(C)S(=O)(=O)c2ccccc2Cl)n1
12%	Cc1ccc(C)c(OCC(=O)Nc2nc3ccc([N+](=O)[O-])cc3s2)c1C
-7%	COc1ccc(/C=C2\SC(=S)N(Cc3cccnc3)C2=O)cc1C
-7%	COc1ccc(NC(=O)CN(C)C(=O)c2cccc(S(=O)(=O)N3CCN(Cc4ccccc4)CC3)c2)cc1
2%	COc1ccc(CN2CN=C(Nc3nc4ccccc4s3)NC2)cc1
19%	O=C(Nc1ccccc1)OCc1cc(-c2ccccc2Cl)on1
12%	CN(Cc1nc(-c2cnccn2)no1)C1CC(C)(C)NC(C)(C)C1
-1%	COc1ccc(N2CCCn3c2nc2c3c(=O)n(Cc3ccccc3F)c(=O)n2C)c(OC)c1
4%	Cc1cccn2c(=O)cc(COC(=O)C(C)Oc3ccccc3)nc12 (configuration not stated)
-13%	CCOC(=O)CCc1ccc(NC(=O)/C=C/c2ccc([N+](=O)[O-])o2)cc1
-9%	CC(=O)NC1CC2CCCC(C1)N2CC(=O)NCc1ccc(F)cc1 (configuration not stated)
-4%	O=C(NNc1c(Cl)cccc1Cl)c1c(F)cccc1Cl
16%	COc1ccc(NC(=O)N2CCCC(C(=O)NCCc3ccccc3)C2)cc1 (configuration not stated)

# Random excerpt: four entries already listed
VDR inh	molecule
4%	Cc1cccn2c(=O)cc(COC(=O)C(C)Oc3ccccc3)nc12 (configuration not stated)
19%	O=C(Nc1ccccc1)OCc1cc(-c2ccccc2Cl)on1
-1%	COc1ccc(N2CCCn3c2nc2c3c(=O)n(Cc3ccccc3F)c(=O)n2C)c(OC)c1
2%	COc1ccc(CN2CN=C(Nc3nc4ccccc4s3)NC2)cc1

# Continued.
VDR inh	molecule
-10%	O=C(Nc1ccc(F)cc1F)c1cc(-c2ccccc2O)no1
11%	Cc1cccc(N=C2NC(=O)/C(=C3/C(=O)N(C)c4ccccc43)S2)c1C
-15%	Cn1c(CNS(=O)(=O)c2ccc(Cl)cc2)cc(=O)n(C)c1=O
13%	Cc1cc(-c2ccc(C)c(S(=O)(=O)Nc3ccccn3)c2)on1
5%	CCc1nc(-n2[nH]c(=O)c3ccccc3c2=O)c2c3c(sc2n1)CCCC3
1%	Cc1ccc2c(c1)cc(C(=O)NCc1ccccc1C)n2C
-12%	Cc1cccc(-c2nc3ccccc3n3c(-c4ccccc4)c4c(=O)n(C)c(=O)n(C)c4c23)c1
-1%	C[C@H](CO)N1C[C@H](C)[C@@H](CN(C)S(=O)(=O)c2ccccc2)Oc2ccc(NS(=O)(=O)c3cn(C)cn3)cc2C1=O
-13%	CC(C)OCCCNC(=O)c1ccc2c(c1)S(=O)(=O)c1ccccc1C2=O
-3%	COc1cccc(-n2c(SCC(=O)c3c[nH]c4ccccc34)nc3ccccc3c2=O)c1
-3%	O=C(Cc1ccccc1)N/N=C/c1ccc2c(c1)OCO2
6%	Cc1ccc2nc3c(cc(C(=O)NC4CCS(=O)(=O)C4)n3Cc3ccccc3)c(=O)n2c1 (configuration not stated)
3%	COc1cc(COc2ccc3c(C)c(CC(=O)O)c(=O)oc3c2C)cc(OC)c1OC
-2%	O=[N+]([O-])c1ccccc1S(=O)(=O)Nc1ccc(S(=O)(=O)N2CCCC2)cc1
9%	COc1cc(O)c(C(=O)O)c(CCc2ccccc2)c1
-7%	CCOc1ccc(CCNC(=O)C2CSC3(C)CCC(=O)N23)cc1OCC (configuration not stated)
1%	CN1C(=O)c2ccc(C(=O)Nc3ccc4c(c3)OCO4)cc2C1=O
3%	Cc1ccccc1CNC(=O)CCC(=O)N1CCSc2ccccc21
8%	O=C(CN1CCCCC1)Nc1cccc(Br)c1
5%	COc1ccc(OCCn2c(=N)n(CCO)c3ccccc32)cc1
-5%	Cc1cc2oc(=O)cc(CNc3ccccc3F)c2cc1O
4%	COc1ccc(OC)c(NC(=O)Cc2c(C)n(C(=O)c3ccc(Cl)cc3)c3ccc(OC)cc23)c1
-6%	CCCn1cc(C(=O)N(C)C2CCCN(Cc3ccccc3F)C2)c(C)n1 (configuration not stated)
0%	Cc1ccc(C)c(SCC(=O)OCC(=O)NCCNC(=O)COC(=O)CSc2cc(C)ccc2C)c1
-4%	CC1Cc2cc(S(=O)(=O)NCc3ccccc3Cl)ccc2N1C(=O)C1CCC1 (configuration not stated)
-9%	C=CCOC(=O)C1=C(C)NC(=O)NC1c1cc(Cl)cc(Cl)c1OC (configuration not stated)
18%	COc1cc(OC)cc(C(=O)NCc2ccc3c(c2)cc(C)n3C)c1
2%	CN(/N=C/c1ccco1)C1=NS(=O)(=O)c2ccccc21
7%	CC(C)c1cc2c(cc1S(=O)(=O)O)[C@@]1(C)CCC[C@@](C)(C(=O)O)[C@@H]1CC2
-7%	Fc1ccccc1Nc1c2c(nc3ccccc13)CCC2
1%	COc1cccc(-c2nc(NC3CCNCC3)c3ccccc3n2)c1
12%	Cc1nc(NC(=O)C2CC2)sc1C(=O)Nc1ccccc1
-15%	COc1ccccc1N1CCN(C(=O)C2Cc3ccccc3CN2C(=O)c2ccco2)CC1 (configuration not stated)
7%	COc1ccc(C)cc1NC(=O)CNC(=O)[C@@H]1Cc2ccccc2CN1
28%	O=C(CSc1nnc2c(n1)[nH]c1ccccc12)Nc1nncs1
14%	CC1CCn2c(nc3cc(C(=O)NCc4ccc(F)cc4)ccc32)C1 (configuration not stated)

# Nothing new here: 2 of the compounds above.
VDR inh	molecule
-4%	O=C(C1=C[C@@H](c2ccccc2)C[C@@H](OCc2ccc(CO)cc2)O1)N1CCN(Cc2ccc3c(c2)OCO3)CC1
-3%	Cc1cc(Cl)ccc1OCC(=O)N/N=C/c1ccncc1

# An excerpt from above in order of the VDR inh value, ascending.
Molecule,VDR inh
CC1Cc2cc(S(=O)(=O)NCc3ccccc3Cl)ccc2N1C(=O)C1CCC1 (configuration not stated),-4%
CC(C)c1cc2c(cc1S(=O)(=O)O)[C@@]1(C)CCC[C@@](C)(C(=O)O)[C@@H]1CC2,7%
COc1cc(OC)cc(C(=O)NCc2ccc3c(c2)cc(C)n3C)c1,18%
O=C(CSc1nnc2c(n1)[nH]c1ccccc12)Nc1nncs1,28%

# (continued)
VDR inh	molecule
10%	Cc1ccccc1OCC(=O)Nc1sc2c(c1C#N)CCC2
15%	Cc1ccc(NC(=O)C2C3CCCC2C3c2ccccc2)c(C)c1 (configuration not stated)
3%	CCc1ccc(N(CC(=O)NC(C)(C)C)C(=O)CCC(=O)Nc2ccccn2)cc1
-6%	Cc1nn(-c2ccc(F)cc2)c2sc(C(=O)O)cc12
-2%	Cc1ccc(N=C2NC(=O)CC(C(=O)Nc3ccc4c(c3)OCO4)S2)cc1 (configuration not stated)
3%	CCCCN(C)C(=O)C1CCCN(c2ncnc3onc(-c4ccc(F)cc4)c23)C1 (configuration not stated)
-2%	CCOC(=O)c1ccc(NC(=O)CSc2cc(-c3ccccc3)nc(C)n2)cc1
-8%	CCOc1ccccc1NC(=O)CSc1nnc(NC(=O)c2ccco2)s1
-1%	CCOc1ccc(CCNC(=O)C2=C(C)C(=O)OC23CCCCC3)cc1OCC
2%	CC(Sc1nnc(NCc2ccccc2)s1)C(=O)Nc1ccc2c(c1)C(=O)c1ccccc1C2=O (configuration not stated)
?	COc1ccc(OC)c(-c2csc(NC(=O)Cc3cc(OC)c(OC)c(OC)c3)n2)c1
-7%	CCN(CC(=O)Nc1ccc(NC(C)=O)cc1)C(=O)/C=C/c1cccs1
-20%	COc1ccc(NC(=O)CSCc2ccccc2C)cc1
-1%	C[C@H]1COC(=O)[C@H](Cc2ccc(F)cc2)C/C=C\C[C@H](CC(=O)N(CCO)Cc2ccccc2)C(=O)N1
-9%	COc1cc(C2C3=C(CC(C)(C)CC3=O)NC3=C2C(=O)c2ccccc23)ccc1O (configuration not stated)
-13%	CCOc1ccc(NC(=O)CCC(=O)c2ccc(F)cc2)cc1
4%	CC1CCC2(CC1)NC(=O)N(CC(=O)c1ccc(CNC(=O)C(C)(C)C)s1)C2=O (configuration not stated)
-6%	Cc1ccc(C(=O)NC(C)C2CC3CCC2C3)c(C)c1 (configuration not stated)
-6%	COc1ccccc1NS(=O)(=O)c1cc(N2Cc3ccccc3C2=N)ccc1N1CCOCC1
3%	O=C(N/N=C/c1ccc(OC(=O)c2cccc(Br)c2)cc1)c1cccnc1
-11%	CC(C)CSc1ccc(S(=O)(=O)NCC(=O)O)cc1[N+](=O)[O-]
-2%	O=C(Nc1cccc(C(=O)N2CCCCC2)c1)C1CC1
18%	CSc1nnc(C)c(/C=C/Nc2ccc(F)cc2F)n1
-9%	COc1ccc(NC(=O)Cn2c(=O)n(-c3ccc(C)cc3)c(=O)c3c2c2cc(C)ccc2n3C)cc1
-3%	CC(C)(C)c1[nH]nc2c1C(c1cccnc1)C(C#N)=C(N)O2 (configuration not stated)
-13%	CCOc1ccc(C(=O)NC(=S)Nc2cccc(S(=O)(=O)NC3=NCCC3)c2)cc1
13%	CC1(C)Oc2ccc(C(=O)NNC(=O)Nc3ccccc3)cc2NC1=O
1%	COc1ccc(-c2cc(C(=O)N3CC(C)CC(C)C3)c3ccccc3n2)cc1OC (configuration not stated)
?	COc1ccc2c(CC(=O)OCC(=O)N3CCc4ccccc43)coc2c1
1%	CCCCNC(=O)N1CCN(C(=O)c2ccco2)CC1
-10%	COc1ccc(N2CCN(c3oc(-c4ccco4)nc3C#N)CC2)cc1
-1%	CC12CCC(C/C1=N\N=C1\NC(=O)/C(=C\c3cccc(Br)c3)S1)C2(C)C (configuration not stated)
-6%	O=C(CNc1ccc2ccccc2c1)N/N=C/c1ccc([N+](=O)[O-])o1
?	O=C(NNS(=O)(=O)c1ccccc1[N+](=O)[O-])c1cccnc1
-23%	COc1ccccc1NC(=O)C(CCS(C)(=O)=O)N1C(=O)c2ccccc2C1=O (configuration not stated)
1%	Cc1[nH]n(-c2ccccc2)c(=O)c1N=Nc1ccc(C#N)cc1
3%	S=C1NC[C@H](CC2CCCCC2)N1CCc1cccc2ccccc12
1%	COC(=O)c1scc(-c2ccc(C)cc2)c1S(=O)(=O)N1CCN(c2ccccc2)CC1
-7%	CCC[C@H]1CCCC/C=C\CCCC(=O)OCCN1C(=O)OC(C)(C)C
4%	CCCCc1cc(=O)oc2cc(C)cc(OCC(=O)NCCN3CCOCC3)c12
-21%	COc1ccc(N2CCN(C(=O)CSc3ncnc4c3cnn4-c3ccccc3C)CC2)cc1

# The list is partial; the hit share may differ from the screen's.
